VACV mCherry inh = vaccinia inhibition (mCherry reporter) | Potency, µM (top dose mostly 36.5 µM), without a hit: top-dose activity change, negative = inhibition, most hits filed as inhibitors | Vaccinia virus mCherry reporter infection, fluorescence; about a quarter of the inactives have no number | actives 0.63% (n = 310,000); active = well fitted inhibition curve with a large enough effect; inconclusive = small, poorly fitted or top-dose-only effect; inactive = no such curve, though single readings can be large or run the other way; tested in A549 cells; note: nearly all actives have a fitted effect of over 35% in size; inactives centre near -10
VACV Venus inh = vaccinia inhibition (Venus reporter) | Potency, µM (series often up to 36.5 µM), inactives show top-dose activity change, negative = inhibition, actives largely listed as inhibitors | actives 0.46% (n = 330,000) | AID 720580 | Vaccinia virus Venus reporter expression, fluorescence; active means well fitted inhibition curve with a large enough effect; inconclusive means small, poorly fitted or top-dose-only effect; inactive means no such curve, though single readings can be large or run the other way; tested in A549 cells; note: nearly all actives have a fitted effect of over 30% in size; inactives centre near -10
Starred values were filed as active, the others as inactive; i = inactive; ? = inconclusive; · = not tested or not shown; [ ] = remark or other dose. % is set by controls: 0 for no effect and ±100 for the full control effect; potency is the fitted concentration of half-maximal effect.

Screens in order: VACV mCherry inh | VACV Venus inh
1: CO/N=C(/CNC(=O)c1cccc(Cl)c1)c1ccc(Cl)cc1
  -8.6% | -10.0%
2: COCCN(CCOc1cc(C)cc(C)c1)Cc1ccc(Cl)cc1
  ? | -9.7%
3: CNc1ncnc2c1ncn2[C@H]1CN(Cc2ccc(F)cc2)C[C@@H](CO)O1
  i | 4.1%
4: COc1ccc(CNc2nc3ccccc3c3nc(-c4ccccc4)nn23)cc1
  -0.6% | -2.1%
5: CCC1(CC)C(=O)NC(=O)NC1=Nc1cccc(OC)c1
  · | -2.8%
6: Cc1ccc(OCC(=O)NC2CCS(=O)(=O)C2)c(C)c1 (stereo not drawn)
  i | -14.7%
7: OC(CNC1CCCCC1)CON=C1CCSc2c(Cl)cccc21 (stereo not drawn)
  i | -28.3%
8: CCn1ncc(C2=NOC(C(=O)NCC(C)C)C2)c1C (stereo not drawn)
  i | -20.0%
9: COc1ccc(CN(CC(=O)NCc2ccccc2)C(=O)CCC(=O)Nc2nccs2)cc1
  -12.9% | -2.2%
10: COc1cc(OC)c(C(=O)OCC(=O)NC2CCCCCCC2)cc1OC
  i | -8.9%
11: C#CC(C)(C)NC(=O)c1sccc1Oc1ccc(F)cc1[N+](=O)[O-]
  -14.3% | -13.1%
12: C[C@H](CO)N1C[C@H](C)[C@@H](CN(C)C(=O)C2CCOCC2)Oc2ncc(Br)cc2C1=O
  ? | -12.2%
13: O=C(CSc1nc2cc(Cl)ccc2s1)N1CCCc2ccccc21
  -21.0% | -13.5%
14: CSc1ccc(NC(=O)C2CCN(c3ncccn3)CC2)cc1
  -4.3% | -11.3%
15: S=c1[nH]nc(Cc2cccc3ccccc23)o1
  -19.4% | -14.8%
16: Cc1ccc(NC(=O)C(=O)NCC2CCCN2S(=O)(=O)c2cccs2)cc1 (stereo not drawn)
  -8.0% | -23.5%
17: Cc1nonc1NC(=O)CSc1nnnn1-c1ccccc1
  i | -11.3%
18: O=C(NCc1ccccc1)C1=C[C@H](c2ccc(Br)cc2)C[C@H](OCCCCO)O1
  -4.9% | -18.1%
19: O=C(NCCN1CCOCC1)c1ccc(Cl)nc1
  i | 10.3%
20: Cc1cc(CN2C(=O)c3ccccc3C2=O)no1
  -9.3% | -11.9%
21: COCCOC(=O)c1sc2nc[nH]c(=O)c2c1C
  -11.4% | -4.2%
22: COc1ccc(-n2nc(C(=O)NCC(=O)NC3CCCCC3)c3ccccc3c2=O)c(OC)c1
  -15.2% | -3.4%
23: N/N=C(\c1ccccc1)c1cc(Br)ccc1N
  -0.3% | -13.6%
24: O=C(Nc1ccccc1)c1ccc(S(=O)(=O)NCc2ccco2)cc1
  · | ?
25: CCCCCn1c(=O)[nH]c2cc(C(=O)NCc3ccc(C)cc3)ccc2c1=O
  -5.3% | -3.1%
26: CCCOc1cccc(C2c3c(oc4ccc(F)cc4c3=O)C(=O)N2CCCN2CCOCC2)c1 (stereo not drawn)
  0.9% | -3.5%
27: CC(=O)Nc1ccc(C(=O)NN2C(=O)NC3(CCCCC3)C2=O)cc1
  -15.6% | -3.0%
28: CCOc1ccc(/C=C/c2nc(C#N)c(NCc3ccccc3)o2)cc1
  ? | ?
29: Cc1ccc(OCC(=O)N/N=C/c2ccc3c(c2)OCO3)cc1C
  i | -28.4%
30: COCCN(C(=O)CSc1nnc(Nc2ccc(C)cc2)s1)c1c(N)n(CC(C)C)c(=O)[nH]c1=O
  -14.7% | -16.0%
31: COc1ccc(C2C3=C(CC(C)(C)CC3=O)Nc3cc4c(cc32)OCO4)cc1 (stereo not drawn)
  -23.9% | -13.8%
32: CCCCN(C(=O)c1cccs1)c1c(N)n(Cc2ccccc2)c(=O)[nH]c1=O
  i | -15.9%
33: CCC(=O)c1ccc(OCC(=O)NC2(C#N)CCCCC2)cc1
  -5.8% | -14.3%
34: COC(=O)c1cc(C(C)=O)n2ccccc12
  i | -16.2%
35: O=C(Nc1ccc(O)cc1)c1ccc2c(c1)C(=O)N(Cc1cccnc1)C2=O
  -7.4% | -12.9%
36: CC1=C(C(=O)Nc2cccnc2)C(c2ccccc2Cl)n2nc(-c3ccccc3)nc2N1 (stereo not drawn)
  3.8% | -6.6%
37: COc1ccc(CN(CC2CCC(C(=O)O)CC2)C(=S)Nc2cccc(C)c2)cc1 (stereo not drawn)
  -15.7% | -1.2%
38: CCOC(=O)C1(C)CCCN1C(=O)c1cncc(Br)c1 (stereo not drawn)
  i | 2.7%
39: CC(NC(=O)COc1ccc(/C=N/NS(=O)(=O)c2ccccc2)cc1)c1ccccc1 (stereo not drawn)
  -25.2%[1.46 µM] | -17.0%
40: O=C(Nc1ccc2c(c1)OCO2)C1CC(=O)N(c2ccccc2)C1 (stereo not drawn)
  -7.8% | -0.9%
41: Cc1ccccc1C(=O)N(Cc1sccc1C)C1CCS(=O)(=O)C1 (stereo not drawn)
  -13.6% | -15.6%
42: Cc1nc2ccn(Cc3cccnc3)c(=O)c2cc1C(=O)Nc1ccc(F)cc1F
  -6.7% | -2.8%
43: COc1ccc(CCC(=O)NC2CC(=O)N(c3ccc(OC)cc3)C2)cc1 (stereo not drawn)
  -16.4% | -16.0%
44: CN(Cc1ccccc1)C(=O)c1cn(C)c2ccc(S(=O)(=O)N(C)C3CCCCC3)cc2c1=O
  -21.3% | -5.3%
45: CCc1nnc(NC(=O)CSc2nnc(-c3ccoc3C)n2CC(C)C)s1
  -18.5% | -10.4%
46: CCOc1ccc(-n2c(SCC(=O)N3CCC(C(=O)O)CC3)nc3ccccc3c2=O)cc1
  -8.5% | -7.9%
47: N#Cc1ccc(OCC(=O)NCCN2CCOCC2)cc1
  -7.7% | -0.8%
48: CC(C)(C)c1ccc(OC2=CS(=O)(=O)c3ccccc32)cc1
  -6.9% | -7.8%
49: CC(=NNC(=S)Nc1ccccc1)c1ccccn1
  ? | ?
50: c1ccc(Sc2ccccn2)cc1
  -6.1%[7.34 µM] | -7.1%[7.34 µM]
51: COC(=O)c1c(N)sc2c1CC(C)(C)OC2
  ? | -1.3%
52: Cc1cccc(NC(=O)c2ncn3c2C(=O)NC[C@@H]3C)c1
  ? | ?
53: Cn1c(-c2ccccc2)c(C#Cc2ccc(N)cc2)c2ccccc21
  ? | -16.4%
54: CN1CCC(OC(=O)COc2ccc(Cl)cc2Cl)CC1
  -0.6% | -5.9%
55: COc1ccc(CCNC(=O)COC(=O)c2cc(S(=O)(=O)NCc3ccccc3)ccc2O)cc1OC
  i | -9.8%
56: COCCNC(=O)C1(C)CCCN(CCC(=O)c2ccc(Br)cc2)C1 (stereo not drawn)
  -3.1% | -2.8%
57: COc1ccc(NC(=O)C(=O)NCC2(c3ccccc3)CCCC2)c(OC)c1
  i | -8.6%
58: Cc1nn2c(SCC(=O)c3cccs3)cc(C(C)(C)C)nc2c1-c1ccccc1
  ? | -29.0%
59: CC(C)N1CCc2c(sc(NC(=O)C3CCCCC3)c2C(N)=O)C1
  ? | 12.6µM*
60: CCOc1ccc(-n2c(=S)sc3c(=O)[nH]c(SCC(=O)NCC4CCCO4)nc32)cc1 (stereo not drawn)
  -10.7% | -18.5%

Remaining list, next part
Screens in order: VACV mCherry inh | VACV Venus inh
61: CCOC(=O)C1CCN(C(=S)NC2CC3C=CC2C3)CC1 (stereo not drawn)
  -11.1% | -1.8%
62: CSc1nc2ccc(N3C(=O)C4CCCCC4C3=O)cc2s1 (stereo not drawn)
  -15.9% | -3.8%
63: O=C(NCc1ccco1)c1cnc2ccccn2c1=O
  i | -26.2%
64: Cn1c(CN2CCCC2)nc2cc(NC(=O)Nc3ccccc3)ccc21
  -24.5% | 0.5%
65: Cc1cccc2nc(Cn3c(=O)n(CCC(=O)NCc4ccco4)c(=O)c4sccc43)cc(=O)n12
  -0.8% | -1.5%
66: CCc1cccc2c(C=C(C#N)C#N)cn(CC(=O)N3CCCCCC3)c12
  -0.9% | -10.9%
67: COc1cc(O)ccc1CN1CCc2nnc(C(C)NC(=O)c3cc(F)ccc3F)n2CC1 (stereo not drawn)
  i | -10.4%
68: CCCOC1(C(F)(F)F)NC(=O)N(c2ccc(Cl)cc2)C1=O (stereo not drawn)
  -7.7% | 8.9%
69: CC(C)(C)C(=O)Nc1cccc(-c2cn3cccnc3n2)c1
  -3.4% | 4.7%
70: C[C@@H]1CC[C@]2(C(=O)O[C@@H]3O[C@H](CO)[C@@H](O)[C@H](O)[C@H]3O)CC[C@]3(C)C(=CCC4[C@@]5(C)CC[C@H](O[C@@H]6OC[C@H](O)[C@H](O[C@@H]7O[C@H](CO)[C@@H](O)[C@H](O)[C@H]7O)[C@H]6O)C(C)(C)C5CC[C@]43C)C2[C@]1(C)O (stereo partly drawn)
  i | -4.4%
71: COc1cccc(-c2c(NC(=O)c3ccco3)oc3ccc(Cl)cc3c2=O)c1
  -28.5% | -15.4%
72: O=C(Nc1ccc(S(=O)(=O)N(Cc2ccccc2)c2ccccc2)cc1)c1ccc(F)cc1
  ? | ?
73: O=C(c1ccco1)N1CCN(Cc2nnc(-c3ccccc3F)o2)CC1
  -7.8% | -17.3%
74: COc1ccc(N2CCN(c3ccc(NC(=O)NN)cc3)CC2)cc1
  -2.7% | -20.9%
75: COc1ccc2oc(C(=O)OCC(=O)NC(C)(C#N)C3CC3)c(C)c2c1 (stereo not drawn)
  -15.1% | -0.4%
76: CC1(C)C([N+](=O)[O-])C(c2ccc(F)cc2)NC(c2ccc(F)cc2)C1[N+](=O)[O-] (stereo not drawn)
  -5.5% | -16.9%
77: O=C(COC(=O)c1cnccn1)Nc1ncc(Cl)cc1Cl
  -5.3% | -1.0%
78: Cc1cccc(CSc2nnc(CCNC(=O)OC(C)(C)C)o2)c1
  i | -3.8%
79: CCc1ccc(-c2cnc3nc[nH]c(=O)c3n2)cc1
  -24.1% | -19.3%
80: CCOC(=O)c1c[nH]c2c(C(=O)c3ccccc3)cc(Cl)cc2c1=O
  -8.5% | -5.2%
81: CC(C)CCNC(=O)CSc1nnc(-c2ccc(S(=O)(=O)N3CCCC3)cc2)n1C
  -15.3% | -16.5%
82: COc1ccccc1NC(=O)C(=O)N/N=C/c1cccs1
  -15.2% | -8.2%
83: CCCc1nc2ccc(NC(=O)NCCC(=O)OCC)cc2c(=O)n1Cc1cccc(Cl)c1
  · | -18.3%
84: COc1ccc(/C=C2\Oc3cc(OCC(=O)N4CCC[C@H]4CO)ccc3C2=O)c(OC)c1
  27.7% | -3.5%
85: CC(=O)c1c(C)[nH]c(C(=O)NCc2ccco2)c1C
  61.4%[activator] | 11.7%
86: COCC(=O)Nc1cc(C(=O)N2CCc3ccccc3C2)c2c(c1)nc(-c1ccncc1)n2C
  -10.2% | -8.5%
87: Cc1ccc2nc3c(cc(C(=O)NCc4ccco4)c(=N)n3C(C)C)c(=O)n2c1
  -4.5% | 15.3%
88: COC(=O)c1ccc(N2CCN(C)CC2)c(NC(=O)c2sc3ccccc3c2Cl)c1
  -15.3% | -10.7%
89: COc1cc(C(=O)N2CCN=C2c2ccccc2)cc(OC)c1OC
  -1.9% | -7.6%
90: CC(Sc1nnc(-c2ccc(C(C)(C)C)cc2)n1C)C(N)=O (stereo not drawn)
  · | -19.9%
91: Nc1cccc(SC2CC(=O)N(c3ccc(Cl)cc3C(=O)c3ccccc3)C2=O)c1 (stereo not drawn)
  -19.3% | ?
92: CCCOc1ccc(C(CC(=O)O)NC(=O)C(c2ccccc2)c2ccccc2)cc1 (stereo not drawn)
  i | -3.9%
93: CCOc1ccc(CC(=O)NCc2ccc3c(c2)CCN3C(C)=O)cc1OCC
  -15.9% | -10.0%
94: COC(=O)[C@]12CCCCC=C1N(Cc1cccc3ccccc13)C(=O)[C@H](CC(=O)N1CCN(C(=O)c3ccco3)CC1)C2
  -8.9% | -22.6%
95: C=CCSc1nnc(NC(=O)CCNC(=O)c2ccco2)s1
  i | -13.5%
96: Cc1cc(C(O)c2ncc(-c3ccccc3F)[nH]2)ccc1F (stereo not drawn)
  -17.7% | -14.7%
97: CCN(CC)C(=O)[C@H]1C[C@H](CC(=O)NCc2cccc(C(F)(F)F)c2)C(=O)N2CCc3c([nH]c4cc(-c5ccco5)ccc34)[C@]12C
  11.2µM* | 11.2µM*
98: COC(=O)c1ccc(CN2CCN(CCCc3ccccc3)C(CCO)C2)cc1 (stereo not drawn)
  -23.2% | -15.3%
99: Cc1ccc2[nH]c(=O)c(C(c3nnnn3C(C)(C)C)N(Cc3ccco3)CC3CCCO3)cc2c1 (stereo not drawn)
  -14.3% | -3.2%
100: O=C(O)c1ccccc1NCCO
  -4.4% | -1.1%
101: CCn1c(SCC(=O)N2CCCC2)nnc1-c1ccco1
  -7.6% | -12.3%
102: CC1=C(C(=O)N(C)C)CC(CC(=O)NCCCCc2ccccc2)C(=O)N1Cc1ccc(C(C)(C)C)cc1 (stereo not drawn)
  ? | ?
103: Cc1ccc(S(=O)(=O)N2CCCCC2)cc1NC(=O)CCNC(=O)c1ccc([N+](=O)[O-])cc1
  -22.7% | -9.2%
104: O=S(=O)(c1ccc(Nc2ccc(-c3ccc4c(c3)OCCO4)nn2)cc1)N1CCCC1
  -29.5% | ?
105: CCCCN(CCCNC(=O)c1cc(Nc2ccc(OC)c(OC)c2)nc2ccccc12)c1ccccc1
  -1.4% | -2.4%
106: CCCCCN(C(=O)NC(=O)Nc1ccc(C)cc1C)S(C)(=O)=O
  -16.6% | -10.2%
107: CS(=O)(=O)c1ccc(Cl)c(NC(=O)c2cccc(Br)c2)c1
  -7.5% | -9.1%

3 neighbouring records already listed:
Screens in order: VACV mCherry inh | VACV Venus inh
46: CCOc1ccc(-n2c(SCC(=O)N3CCC(C(=O)O)CC3)nc3ccccc3c2=O)cc1
  -8.5% | -7.9%
47: N#Cc1ccc(OCC(=O)NCCN2CCOCC2)cc1
  -7.7% | -0.8%
48: CC(C)(C)c1ccc(OC2=CS(=O)(=O)c3ccccc32)cc1
  -6.9% | -7.8%

Bioassay records (PubChem BioAssay)
